Screening results (PubChem BioAssay)
RecA splice inh: inhibitors of M. tuberculosis RecA intein splicing; inhibition, %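 (about 9 µM by stock and volumes)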; AID 2221; cell-free RecA intein splicing, fluorescence; P9WHJ3; hit rate 0.75% among 290,000; in the data active = inhibition above about 30%; inconclusive = no clear call, values can overlap the other calls;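 also: 0% = vehicle wells and 100% = reference inhibitor control wells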
Target sequence (P9WHJ3 whole entry, looked up, canonical isoform): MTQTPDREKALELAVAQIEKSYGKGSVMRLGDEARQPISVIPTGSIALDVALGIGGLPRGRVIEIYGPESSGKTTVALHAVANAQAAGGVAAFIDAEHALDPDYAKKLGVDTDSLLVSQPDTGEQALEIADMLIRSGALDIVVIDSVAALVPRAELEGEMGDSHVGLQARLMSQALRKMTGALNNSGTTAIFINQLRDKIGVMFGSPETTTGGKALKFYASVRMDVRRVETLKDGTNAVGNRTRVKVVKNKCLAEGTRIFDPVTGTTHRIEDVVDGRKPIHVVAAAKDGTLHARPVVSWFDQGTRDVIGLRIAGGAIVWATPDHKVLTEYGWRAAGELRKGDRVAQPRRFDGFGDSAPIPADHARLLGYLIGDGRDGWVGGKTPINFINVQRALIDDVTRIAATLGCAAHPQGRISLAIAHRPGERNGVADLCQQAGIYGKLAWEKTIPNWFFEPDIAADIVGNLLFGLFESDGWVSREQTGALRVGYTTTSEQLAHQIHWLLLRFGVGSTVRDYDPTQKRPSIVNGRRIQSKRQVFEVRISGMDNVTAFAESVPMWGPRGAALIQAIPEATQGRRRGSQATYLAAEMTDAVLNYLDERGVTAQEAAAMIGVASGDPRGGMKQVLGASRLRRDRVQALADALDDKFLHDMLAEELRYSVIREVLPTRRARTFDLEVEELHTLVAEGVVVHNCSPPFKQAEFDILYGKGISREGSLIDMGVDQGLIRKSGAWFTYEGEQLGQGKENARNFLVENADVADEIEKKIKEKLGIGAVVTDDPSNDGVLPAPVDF
Mtb growth: M. tuberculosis H37Rv growth inhibitors, H37Rv strain (AID 1626). M. tuberculosis H37Rv growth inhibition; higher % means a stronger effect. inhibition, % at 10 µM, or IC50 in µM where a hit was titrated. hit rate 0.95% among 220,000;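 active = confirmed in a dose series; inconclusive = inhibition above 80% but not taken into the dose series; inactive = below 80% or under 30% at every dose of the series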;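 also: bacteria incubated seven days before Alamar blue readout; 0% = bacteria only wells and 100% = bacteria with antibiotic wells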
Arbovirus anti: antivirals against arbovirus infection | arbovirus infection cell-based antiviral screen | inhibition, % at 10 µM | hit rate 0.37% among 200,000;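 active = inhibition from about 30%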;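 also: bluetongue infection of BSR cells; cell survival read as ATP light after 72 h; 0% = infected wells without compound and 100% = uninfected wells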
YopH inh: blocks Yersinia enterocolitica YopH tyrosine phosphatase. hit rate 0.16% among 140,000. inhibition, %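 (about 10 µM by stock and volumes)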. fluorescence Ex485/Em525;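 active = inhibition of 50% or more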;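 also: controls were vehicle for no effect and minimum signal wells for full effect; inactives centre near -20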
Mtb bLac sens: beta-lactam sensitization of Mtb H37Rv; M. tuberculosis H37Rv growth with meropenem, percent inhibition; hits of this screen are not shown here; inhibition, % at 25 µM; hit rate 0.27% among 330,000;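 active = about 74% or more and at least 40 points above the plate without the antibiotic, then above 30% in a dose series; inconclusive = first-round hits that could not be retested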;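 also: growth measured after seven days incubation then overnight dye step; 0% = bacteria only wells and 100% = bacteria with antibiotic; twin plates without the antibiotic show which effects depend on it; some results filed as inactive read as strong as hits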
Arbovirus anti repeat: also measured in Arbovirus anti; calls as there; inhibition, %; measured here: 10K subset replicate screen; many hits read low in the repeat;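 first of two repeat runs on a subset; 0% = infected and 100% = uninfected wells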
Active calls of the source: *; ? = inconclusive; . = not tested or not shown. Not all compounds are listed; rates above refer to the full screens.

SMILES | RecA splice inh | Mtb growth | Arbovirus anti | YopH inh | Mtb bLac sens | others
O=C(N/N=C/c1ccc([N+](=O)[O-])cc1)c1cc2ccccc2o1 | 2.6 | -5% | . | . | -4
O=C(O)c1ccc2c(c1)N(Cc1ccccc1)C(=O)c1ccccc1S2=O (stereo not given) | -0.8 | -10% | 3 | -7 | 2
NC(=O)CC(NC(=O)c1ccc(Br)cc1)c1ccc(NC2CCCCCC2)c([N+](=O)[O-])c1 (stereo not given) | -0.7 | . | . | . | 76
CS(=O)(=O)N(Cc1ccc(Cl)cc1)c1ccc(C(=O)NCCC2=CCCCC2)cc1 | 0.9 | -4% | -5 | -12 | .
CCC(=O)/C=C1\Sc2ccc(OC)cc2N1CCO | -0.3 | -14% | 0 | 2 | -8
Cc1nc2nc(SCC(=O)N3CCC4(CC3)OCCO4)nn2c(C)c1Cc1ccccc1 | 3.4 | -3% | 7 | -9 | 9
Cc1ccc(C2NC(=O)c3sc(=S)n(-c4ccccc4)c3N2)cc1 (stereo not given) | -7.2 | -8% | -14 | . | -3
CC(Cc1cccs1)NC(=S)Nc1ccc(Cl)cc1 (stereo not given) | 7.4 | 6% | -25 | 3 | 8
COc1ccc(-c2cc(C(F)(F)F)nc(-n3ccnc3C)n2)cc1 | -0.3 | 11% | 3 | -21 | 87
O=C(NCc1nnc2c(C(F)(F)F)cc(Cl)cn12)c1cccnc1 | -2.3 | . | . | . | -3
Cc1sc(NC(=O)c2cc(-c3ccc(Cl)cc3)nc3ccccc23)c(C(N)=O)c1C | -0.2 | 30% | -6 | -12 | 51
CCCCNC(=O)Cc1ccc(C)cc1 | 0.1 | -4% | -6 | 7 | 2
CC(C)[C@H](NC(=O)N1CCn2c1nc1ccccc12)C(=O)NC1CCCCC1 | 3.4 | . | . | . | 9
COc1ccccc1C(=O)Nc1ccc(S(=O)(=O)N2CCOCC2)cc1 | -1.4 | -5% | 0 | 3 | 5
Cc1ccc(NC(=O)C(=O)NCc2ccc(/C=N/NC(=O)c3c(C)nc4ccccn34)o2)cc1 | 3.3 | -2% | 4 | -23 | ?
Cc1cc(S(=O)(=O)NCc2ccccc2)ccc1OCC(=O)NCc1ccccn1 | -1.4 | . | . | . | -2
O=C(Cc1ccc(-n2c(=O)c3ccccc3n(Cc3ccc(F)cc3)c2=O)cc1)NCC1CCCO1 (stereo not given) | -2.2 | -1% | 10 | -4 | 1
COCCN(C(=O)CSc1nncn1-c1ccccc1)c1c(N)n(Cc2ccccc2)c(=O)[nH]c1=O | -3.1 | -10% | 0 | -27 | -4
Cc1ccc(-n2nc(C)c3c2OC(N)=C(C#N)C3c2ccco2)cc1 (stereo not given) | 69* | 0% | 0 | -33 | -15
Cc1ccc(N(C)S(=O)(=O)c2csc(C(N)=O)c2)cc1C | 2.6 | . | . | . | -5
O=C(NC1CCCC1)C(c1ccc(F)cc1)N(Cc1ccc(Cl)cc1)C(=O)CCl (stereo not given) | 59* | -3% | -2 | 3 | 11
CCCN(CCC)C(=O)NC1CC(=O)N(c2ccc(OC)cc2)C1 (stereo not given) | -0.3 | -1% | 4 | -5 | -2
CC(C)CCOP(=O)(c1ccc(N(C)C)cc1)C(O)c1ccccc1 (stereo not given) | -1.8 | . | . | . | 12
Cc1ccc(-c2cccc(C(=O)NCCc3ccccc3)n2)c2ccccc12 | 3.0 | 10% | 6 | -23 | 71

Among those listed so far, these contain a Cl atom:
SMILES | RecA splice inh | Mtb growth | Arbovirus anti | YopH inh | Mtb bLac sens | others
CS(=O)(=O)N(Cc1ccc(Cl)cc1)c1ccc(C(=O)NCCC2=CCCCC2)cc1 | 0.9 | -4% | -5 | -12 | .
CC(Cc1cccs1)NC(=S)Nc1ccc(Cl)cc1 (stereo not given) | 7.4 | 6% | -25 | 3 | 8
O=C(NCc1nnc2c(C(F)(F)F)cc(Cl)cn12)c1cccnc1 | -2.3 | . | . | . | -3
Cc1sc(NC(=O)c2cc(-c3ccc(Cl)cc3)nc3ccccc23)c(C(N)=O)c1C | -0.2 | 30% | -6 | -12 | 51
O=C(NC1CCCC1)C(c1ccc(F)cc1)N(Cc1ccc(Cl)cc1)C(=O)CCl (stereo not given) | 59* | -3% | -2 | 3 | 11

The list goes on:
SMILES | RecA splice inh | Mtb growth | Arbovirus anti | YopH inh | Mtb bLac sens | others
CC1(C)CN2C(=O)c3ccccc3C2(C)S1 (stereo not given) | -3.0 | -4% | 1 | . | 2
COc1ccc(-n2nnnc2SCC(=O)c2cc3ccccc3o2)cc1 | 0.4 | 12% | -9 | -41 | -1
CN(C)S(=O)(=O)N1CCN(CC(O)COc2ccc(C(=O)c3ccccc3)cc2)CC1 (stereo not given) | -0.4 | 4% | 7 | -15 | -11
COc1ccc(CNC(=O)C(NS(=O)(=O)c2ccc3c(c2)CCCN3C(C)=O)C(C)C)cc1 (stereo not given) | . | -3% | -5 | -28 | 2
COc1cccc(-c2ccc(NC(=O)C3CCCN(Cc4cnc(C)n4C)C3)cc2)c1 (stereo not given) | 3.3 | . | . | . | -6
CC(C)C(c1nnnn1CCc1ccccc1)N1CCOCC1 (stereo not given) | -2.2 | 9% | -5 | -21 | -9
CN1CCN(Cc2nc3ccccc3n2C)CC1CCO (stereo not given) | -1.2 | . | . | . | 9
COc1ccc(C(=O)N2CCN(S(=O)(=O)c3ccccc3)CC2)c(OC)c1 | -0.5 | -3% | 6 | -30 | 1
O=C(COC(=O)c1cccc(S(=O)(=O)N2CCCC2)c1)Nc1ccccc1 | 1.6 | -1% | -6 | . | -2
Cc1ccc(Nc2n[nH]c(C)c2[N+](=O)[O-])cc1C | -3.9 | 9% | 7 | -23 | 4
Cn1c(=O)c([N+](=O)[O-])c(NCc2ccccc2)c2ccccc21 | -1.8 | -3% | -3 | -36 | -14
COCCNC(=O)CSc1nc2cc3c(cc2c(=O)n1CCCC(=O)NCCc1ccc(OC)c(OC)c1)OCO3 | -1.7 | -1% | 2 | . | 2
N/C(=N\OC(=O)c1cc(Cl)ccc1Cl)c1cccnc1 | 0.9 | -3% | -2 | -4 | 0
COc1ccc(S(=O)(=O)N2CCCC2CNC(=O)C(=O)NCc2ccccn2)cc1 (stereo not given) | -0.8 | . | . | . | -12
COc1ccccc1-c1cc(=O)c2c(O)ccc([N+](=O)[O-])c2o1 | -0.6 | 12% | . | . | 92
CC(CCc1ccccc1)NC(=O)c1ccccc1Cl (stereo not given) | -0.6 | . | . | . | 4
COC(=O)[C@@]1(Cc2ccc(OC)cc2)[C@H]2c3cc(C(=O)N4CCCC4)n(CCn4cc([N+](=O)[O-])nc4C)c3C[C@H]2CN1C(=O)c1ccccc1 | 0.7 | -8% | -13 | -40 | -3
NC(=O)c1ccc[n+](CC(=O)c2ccc(F)cc2)c1 | 3.2 | -7% | . | . | -6
O=C1C2CCCN2C(c2ccccc2F)N1c1cccc(Cl)c1 (stereo not given) | 0.0 | 0% | 7 | -35 | -1 | Arbovirus anti repeat=-3
Cc1ccc(N2C=Nc3ccc(C)c4nc(C)cc2c34)cc1 | -113 | -2% | 17 | 4 | -12
COc1cc(C(=O)Nc2scc(-c3ccc(C)cc3)c2C(=O)O)cc(OC)c1OC | -2.3 | . | . | . | 18
Cc1nn(C)cc1CNC(=O)Nc1ccc(Br)cc1Cl | 0.8 | 1% | 14 | -11 | 5
Clc1nc(N2CCOCC2)ncc1Br | 0.2 | -3% | . | . | -4
CCOc1ccc(CNC(=O)C(C)n2ccc3cc(S(=O)(=O)N4CCCC4)ccc32)cc1 (stereo not given) | 5.4 | . | . | . | -10
N/C(=N\c1nc2ccccc2o1)NC(=O)c1ccc([N+](=O)[O-])cc1 | 0.1 | -1% | . | . | -2
COc1ccccc1-n1ccnc(SCC(=O)NC2CCCC2)c1=O | -1.2 | . | . | . | -6
C=CCn1c(CCC(=O)O)ccc1-c1ccc(OC)cc1 | -5.2 | -7% | -11 | -30 | 6
CS(=O)(=O)c1ccc(Cl)c(C(=O)O)c1 | -1.4 | -2% | 10 | -39 | -10
CN1CCN(S(=O)(=O)c2ccc(NC(=S)NC(=O)C(C)(C)C)cc2)CC1 | 2.1 | -1% | 5 | . | -12
Cc1ccccc1Nc1nc(N)nc(COC(=O)C2CCCCC2)n1 | 1.4 | -1% | 6 | 0 | 6
COc1ccc(OC)c(C2C(C(=O)Nc3cccnc3)=C(C)NC3=C2C(=O)CCC3)c1 (stereo not given) | -2.6 | -5% | -2 | -1 | -12
CCN(C(=O)CSc1nc(-c2ccccc2)cn1N)c1c(N)n(Cc2ccccc2)c(=O)[nH]c1=O | 0.1 | . | . | . | 3
O=C1OCC2=C1C(c1ccc(F)cc1)c1cc3c(cc1N2)OCCO3 (stereo not given) | . | 6% | -19 | . | .
O=C(/C=C/Nc1ccc(F)cc1F)c1cccs1 | -2.5 | 24% | -9 | -11 | 6
Cc1cc(NC(=O)CSc2nc(N)c(NC(=O)c3ccco3)c(=O)[nH]2)no1 | . | -4% | . | . | 3
COc1ccc(CCn2c(O)c(C=NCCN3CCCCC3)c(=O)[nH]c2=O)cc1OC | -0.8 | -2% | 11 | -7 | 0
CCOc1ccc(C2C(C(=O)OC)=CN(C(C)c3ccccc3)C=C2C(=O)OC)cc1 (stereo not given) | -4.8 | . | . | . | 5
O=C(NCCN1CCOCC1)c1cc(-c2ccco2)on1 | -1.4 | . | -7 | -13 | -6
COc1ccc(/C=N/NC(=O)c2ccccc2OCc2ccccc2)c(OC)c1 | 3.1 | -7% | 4 | . | 1
C=CCOC(=O)CCC(=O)Nc1cccc2ccccc12 | 2.8 | -1% | 5 | -41 | 3
CC(C)=CC(=O)Nc1ccc(OCc2ccccc2)cc1 | 1.7 | 12% | -19 | . | 29
COc1ccc(S(=O)(=O)NCCOc2ccccc2)cc1-n1cnnn1 | -2.8 | -4% | -9 | . | -1
Brc1ccc(-c2nn3c(-c4ccco4)nnc3s2)o1 | 4.3 | -3% | 4 | -29 | 5
Cc1ccc(C)c(NC(=O)Cn2c([N+](=O)[O-])cnc2C)c1 | 0.2 | -12% | 5 | -32 | 2
Cn1cccc1C1C(C#N)=C(N)OC2=C1C(=O)CCC2 (stereo not given) | -0.1 | -6% | . | . | -10
CC(OC(=O)CC1CCCCC1)C(=O)Nc1ccc(F)cc1 (stereo not given) | 7.7 | . | . | . | -9
O=C(c1cccnc1)N1C2CCC1CC(O)(c1ccc(F)cc1)C2 (stereo not given) | 1.5 | -1% | 0 | -26 | -12
Cn1c(N)c(C(=O)COC(=O)c2cccc(S(=O)(=O)N3CCCCC3)c2)c(=O)n(C)c1=O | 1.6 | -7% | 4 | -26 | -3
CCN(CC)c1ccc2cc(S(=O)(=O)c3ccc(Cl)cc3)c(=O)oc2c1 | . | -4% | 11 | -28 | 7
CC1CCN(S(=O)(=O)c2ccc(C(=O)Nc3nnc(C4=COCCO4)o3)cc2)CC1 | -0.8 | . | . | . | 70
CCCCOC(=O)c1nc(Cl)c(Cl)c(N)c1Cl | 7.6 | -4% | 1 | -38 | 5
Cc1cc(C(=O)NNS(=O)(=O)c2ccccc2C(F)(F)F)nn1C(C)(C)C | -0.4 | -11% | . | . | 6
COc1ccccc1NC(=S)N(Cc1cccnc1)Cc1ccco1 | 2.6 | 15% | 10 | . | -5
COCCCn1c(=O)c2ccccc2n(Cc2cc(C(=O)OC)ccc2OC)c1=O | 1.5 | . | . | . | -14
O=C(Cn1ncc2c(=O)oc3ccccc3c21)NCC1CCCO1 (stereo not given) | 0.8 | -2% | -1 | -18 | 2
Cc1cnnn1-c1ccc([N+](=O)[O-])cc1 | -2.7 | 2% | 3 | . | 1
CN(Cc1ccc(F)cc1)C(=O)c1cccc(S(=O)(=O)N2CCN(c3ccccc3)CC2)c1 | 3.6 | . | . | . | -7
O=C(COC(=O)/C=C/c1cccc([N+](=O)[O-])c1)NCc1ccc2c(c1)OCO2 | -0.5 | 3% | 5 | . | 4
CCOC(=O)c1sc(/N=C/c2c(O)n(-c3cccc(C)c3)c(=O)[nH]c2=O)c(C#N)c1C | 2.1 | -2% | -10 | -19 | 17
CN1CCN(c2ncnc(Cl)c2N)CC1 | . | 7% | 2 | . | .

(cont.)
SMILES | RecA splice inh | Mtb growth | Arbovirus anti | YopH inh | Mtb bLac sens | others
CCOP(=O)(c1ccc(N(C)C)cc1)C(O)c1ccc(C)cc1 (stereo not given) | 0.3 | . | . | . | -7
CC(=O)c1cc(-c2ccccc2)n(CCC(=O)NCc2cccs2)c1C | -0.5 | 0% | -14 | -2 | -2
Cc1nnsc1C(=O)NC1CCCCC1 | -2.8 | -5% | 3 | -42 | -6
N#Cc1ccc(-c2ccc(Cl)cc2)nc1SCC(=O)c1cccc(Cl)c1 | -3.6 | 5% | -6 | -17 | -5
